Screens (PubChem BioAssay)
Yeast UUG start: alters start codon recognition fidelity in yeast; S. cerevisiae UUG-firefly luciferase reporter, luminescence/redox ratio; activity score, % at 18.7 µM; 0.13% of 350,000 active; AID 602363;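 active = replicate mean at a twofold rise or more, about +100% in these data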;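 note: firefly luciferase made from a UUG start codon reports start codon fidelity; reporter light over untreated wells divided by growth signal over untreated wells; some hits fall short of that in this replicate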
HIV Env fusion: HIV envelope-mediated fusion inhibition. AID 651610. inhibition, % at 12.3 µM. HeLa-JRFL Env/CEM21 cell fusion, luciferase. 1.1% of 360,000 active;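 active = mean replicate inhibition score of at least 50 and every replicate individually at or above 50; inconclusive = only one of the two criteria met; inactive = mean below 50 and not all replicates reaching 50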;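 note: 0% = plate neutral controls and 100% = maraviroc near 300 nM; one replicate is shown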
Starred values were filed as active, the others as inactive; ? = inconclusive; [ ] = dose if it differs, or a comment. The list is partial (hit frequency here may not be typical).

mol | Yeast UUG start | HIV Env fusion
C[C@H]1CCCCO[C@H](CN(C)Cc2ccc(C(=O)O)cc2)[C@@H](C)CN([C@@H](C)CO)C(=O)c2cc(NC(=O)NC3CCCCC3)ccc2O1 | 2 | 13[16.7 µM]
COc1cccc(-c2cnc3c(c2)C(=O)N([C@H](C)CO)C[C@@H](C)[C@H](CN(C)Cc2ccc(F)cc2)O3)c1 | 0 | 8[16.7 µM]
C[C@H](CO)N1C[C@H](C)[C@H](CN(C)Cc2ccccc2)Oc2ncc(C#CC3(O)CCCC3)cc2C1=O | 7 | 12[16.7 µM]
C[C@H]1CN([C@@H](C)CO)C(=O)c2cc(NS(=O)(=O)c3ccc(F)cc3)ccc2O[C@@H]1CN(C)S(=O)(=O)c1cccs1 | 14 | -5[16.7 µM]
Cc1ccc(S(=O)(=O)N(C)C[C@@H]2Oc3c(NC(=O)C4CCCCC4)cccc3C(=O)N([C@@H](C)CO)C[C@@H]2C)cc1 | 6 | 13[16.7 µM]
Cc1ccc(S(=O)(=O)N[C@@H]2CC[C@H](CC(=O)O)O[C@@H]2CO)cc1 | -6 | -13[16.7 µM]
C[C@H]1CN([C@@H](C)CO)C(=O)c2cc(C3=CCCC3)cnc2O[C@H]1CN(C)Cc1ccc(C(=O)O)cc1 | 13 | 11[16.7 µM]
C[C@H](CO)N1C[C@H](C)[C@@H](CN(C)Cc2ccc(C(F)(F)F)cc2)Oc2ccc(NS(=O)(=O)c3ccc(F)cc3)cc2C1=O | -2 | 12[16.7 µM]
COCC(=O)N[C@H]1CC[C@@H](CC(=O)NCc2ccccc2OC)O[C@H]1CO | -17 | -54[16.7 µM]
C/C=C/c1ccc2c(c1)O[C@@H](CN(C)C(=O)C1CC1)[C@@H](C)CN([C@@H](C)CO)S2(=O)=O | -11 | 22[16.7 µM]
C[C@H](CO)N1C[C@H](C)[C@H](CN(C)CC2CCCCC2)Oc2ccc(NS(=O)(=O)c3ccc(Cl)cc3)cc2C1=O | -4 | 14[16.7 µM]
C[C@H](CO)N1C[C@H](C)[C@H](CN(C)Cc2ccc(C(=O)Nc3ccccc3N)cc2)Oc2c(NC(=O)c3ccc(-c4nccs4)cc3)cccc2C1=O | 9 | -53[16.7 µM]
C[C@@H]1CN([C@H](C)CO)C(=O)c2cc(NC(=O)Nc3ccc(C(F)(F)F)cc3)ccc2O[C@@H](C)CCCCO[C@H]1CN(C)Cc1ccc2c(c1)OCO2 | -9 | ?
Cc1ccc(S(=O)(=O)N[C@@H]2C=C[C@@H](CC(=O)NCc3ccncn3)O[C@H]2CO)cc1 | -7 | -4[16.7 µM]
C[C@@H]1CN([C@@H](C)CO)C(=O)c2cc(NC(=O)Cc3ccccc3)ccc2O[C@H]1CN(C)C(=O)Nc1ccccc1 | 12 | -3[16.7 µM]
C[C@@H]1CN([C@H](C)CO)C(=O)Cc2cc(NC(=O)Nc3ccccc3)ccc2O[C@H]1CN(C)S(=O)(=O)c1cccs1 | 7 | 21[16.7 µM]
CC(=O)Nc1ccc2c(c1)C(=O)N(C)[C@H]1CC[C@@H](CC(=O)NCc3ccc4c(c3)OCO4)O[C@@H]1CO2 | -9 | 8[16.7 µM]
COc1ccc(NC(=O)Nc2ccc3c(c2)CC(=O)N([C@H](C)CO)C[C@H](C)[C@H](CN(C)Cc2ccc(C(F)(F)F)cc2)O3)cc1 | 11 | -12[16.7 µM]
COc1ccc(S(=O)(=O)N(C)C[C@H]2Oc3ccc(N(C)C)cc3C(=O)N([C@H](C)CO)C[C@H]2C)cc1 | 9 | 7[16.7 µM]
CC(C)C#Cc1ccc2c(c1)O[C@@H](CN(C)CC1CC1)[C@@H](C)CN([C@@H](C)CO)S2(=O)=O | 20 | -15[16.7 µM]
COc1ccc(S(=O)(=O)Nc2ccc3c(c2)C(=O)N([C@@H](C)CO)C[C@H](C)[C@@H](CN(C)Cc2ccc(C(=O)O)cc2)O3)cc1 | -17 | 23[16.7 µM]
CCC(=O)Nc1ccc2c(c1)C(=O)N(C)[C@@H]1CC[C@H](CC(=O)NCCc3ccncc3)O[C@@H]1CO2 | -6 | -19[16.7 µM]
C[C@@H]1CN([C@H](C)CO)S(=O)(=O)c2ccc(C3=CCCCC3)cc2O[C@@H]1CN(C)C(=O)C1CCOCC1 | 13 | 13[16.7 µM]
C[C@H]1CN([C@@H](C)CO)C(=O)c2cccc(NC(=O)Nc3ccc(F)cc3)c2O[C@@H]1CN(C)C(=O)Nc1ccc(F)cc1 | 4 | -20[16.7 µM]
CC(C)NC(=O)N(C)C[C@@H]1Oc2cc(C#CC3CC3)ccc2S(=O)(=O)N([C@@H](C)CO)C[C@@H]1C | 12 | -17[16.7 µM]
C[C@@H]1CCCCO[C@@H](CN(C)C(=O)NC2CCCCC2)[C@H](C)CN([C@@H](C)CO)C(=O)c2cc(N(C)C)ccc2O1 | 2 | -11[16.7 µM]
C[C@@H]1CCCCO[C@@H](CN(C)C(=O)c2ccncc2)[C@@H](C)CN([C@H](C)CO)C(=O)c2cc(NC(=O)NC3CCCCC3)ccc2O1 | 11 | 5[16.7 µM]
O=C(C[C@@H]1CC[C@@H](NS(=O)(=O)c2ccccc2)[C@@H](CO)O1)NCc1ccccc1F | 5 | -2[16.7 µM]
O=C(C[C@@H]1C=C[C@H](NC(=O)c2cnccn2)[C@H](CO)O1)NCc1ccccc1F | 3 | 16[16.7 µM]
CCCN(C)C[C@H]1Oc2cc(-c3cncnc3)ccc2S(=O)(=O)N([C@H](C)CO)C[C@H]1C | -7 | -5[16.7 µM]
C[C@H]1CN([C@@H](C)CO)C(=O)c2cc(C#Cc3ccccn3)cnc2O[C@@H]1CN(C)C(=O)CCN1CCCCC1 | 2 | -11[16.7 µM]
CN1C(=O)c2cc(NC(=O)c3cccc(Cl)c3)ccc2OC[C@H]2O[C@H](CC(=O)NC3CCCCC3)CC[C@@H]21 | 11 | 28[16.7 µM]
Cc1cccc(CN(C)C[C@H]2OCc3cn(nn3)CCCC(=O)N([C@@H](C)CO)C[C@@H]2C)c1 | -4 | 5[16.7 µM]
O=C(C[C@@H]1C[C@H]2c3cc(NC(=O)C4CCOCC4)ccc3O[C@H]2[C@@H](CO)O1)NCc1ccccc1 | -7 | 90*[16.7 µM]
O=C(NCC[C@@H]1CC[C@@H](NS(=O)(=O)c2ccc(Cl)cc2)[C@@H](CO)O1)c1ccccc1F | 20 | 9[16.7 µM]
O=C(C[C@H]1CC[C@H]2[C@@H](COC[C@H](O)CN2C(=O)c2cnccn2)O1)NCc1ccc(F)cc1 | -10 | -3[16.7 µM]

A draw from above in order of heavy-atom count, low to high.
mol | Yeast UUG start | HIV Env fusion
CC(C)NC(=O)N(C)C[C@@H]1Oc2cc(C#CC3CC3)ccc2S(=O)(=O)N([C@@H](C)CO)C[C@@H]1C | 12 | -17[16.7 µM]
CCC(=O)Nc1ccc2c(c1)C(=O)N(C)[C@@H]1CC[C@H](CC(=O)NCCc3ccncc3)O[C@@H]1CO2 | -6 | -19[16.7 µM]
C[C@H](CO)N1C[C@H](C)[C@H](CN(C)Cc2ccccc2)Oc2ncc(C#CC3(O)CCCC3)cc2C1=O | 7 | 12[16.7 µM]
C[C@H]1CN([C@@H](C)CO)C(=O)c2cc(NS(=O)(=O)c3ccc(F)cc3)ccc2O[C@@H]1CN(C)S(=O)(=O)c1cccs1 | 14 | -5[16.7 µM]
C[C@@H]1CN([C@H](C)CO)C(=O)c2cc(NC(=O)Nc3ccc(C(F)(F)F)cc3)ccc2O[C@@H](C)CCCCO[C@H]1CN(C)Cc1ccc2c(c1)OCO2 | -9 | ?

(listing goes on)
mol | Yeast UUG start | HIV Env fusion
C[C@@H]1CCCCO[C@@H](CN(C)S(=O)(=O)c2cccs2)[C@H](C)CN([C@@H](C)CO)C(=O)c2cc(NS(=O)(=O)c3ccc(F)cc3)ccc2O1 | -8 | -1[16.7 µM]
O=C1O[C@@H](c2ccccc2)[C@@H](c2ccccc2)N2[C@@H](c3ccccc3OCCO)[C@]3(C(=O)Nc4ccccc43)[C@@H](C(=O)N3CCCCCCC3)[C@H]12 | -1 | 7[16.7 µM]
C[C@H](CO)N1C[C@H](C)[C@@H](CN(C)S(=O)(=O)c2ccc(F)cc2)Oc2c(NS(=O)(=O)c3ccc(Cl)cc3)cccc2C1=O | -16 | -96[16.7 µM]
C[C@@H]1CCCCO[C@H](CN(C)C(=O)Nc2ccc3c(c2)OCO3)[C@@H](C)CN([C@H](C)CO)C(=O)c2cc(NC(=O)c3ccccc3)ccc2O1 | -3 | -32[16.7 µM]
Cc1ccc(S(=O)(=O)Nc2ccc3c(c2)C(=O)N(C)[C@H]2CC[C@H](CC(=O)O)O[C@H]2CO3)cc1 | 4 | -6[16.7 µM]
CCC(=O)Nc1ccc2c(c1)C(=O)N(C)[C@@H]1CC[C@H](CC(=O)Nc3cccc(OC)c3)O[C@H]1CO2 | 6 | 3[16.7 µM]
O=C(C[C@@H]1C[C@H]2c3cc(NC(=O)C4CCOCC4)ccc3O[C@H]2[C@H](CO)O1)NCc1cccc(F)c1 | 23 | 25[16.7 µM]
C[C@H]1CN([C@@H](C)CO)C(=O)c2cc(NC(=O)Cc3cn(C)c4ccccc34)ccc2O[C@H]1CN(C)CC1CC1 | 9 | 3[16.7 µM]
C[C@@H]1CN([C@H](C)CO)C(=O)Cc2cc(NS(=O)(=O)c3ccccc3)ccc2O[C@@H]1CN(C)Cc1ccc(Cl)c(Cl)c1 | 9 | 16[16.7 µM]
CC(C)CC#Cc1ccc2c(c1)O[C@H](CN(C)Cc1cncnc1)[C@H](C)CN([C@H](C)CO)S2(=O)=O | 4 | -6[16.7 µM]
C[C@@H]1CN([C@@H](C)CO)C(=O)c2cc(NC(=O)Nc3ccc4c(c3)OCO4)ccc2O[C@H]1CN(C)S(=O)(=O)c1ccccc1 | 0 | -7[16.7 µM]
CN(C)c1ccc2c(c1)[C@@H]1C[C@@H](CC(=O)NCc3ccc(-c4ccccc4)cc3)O[C@H](CO)[C@@H]1O2 | -2 | 6[16.7 µM]
C[C@H]1CCCCO[C@H](CN(C)Cc2ccc(C(F)(F)F)cc2)[C@@H](C)CN([C@@H](C)CO)C(=O)c2cc(NC(=O)Nc3ccccc3)ccc2O1 | 4 | 38[16.7 µM]
CNC(=O)C[C@H]1CC[C@H]2[C@@H](COc3ccc(NC(=O)c4ccc(F)c(F)c4)cc3C(=O)N2C)O1 | -10 | -23[16.7 µM]
O=C(C[C@H]1CC[C@H](NC(=O)Nc2ccc(C(F)(F)F)cc2)[C@@H](CO)O1)NCc1ccccn1 | -18 | -4[16.7 µM]
O=C(C[C@H]1C=C[C@H](NC(=O)C2CCOCC2)[C@@H](CO)O1)NCC1CC1 | -14 | 0[16.7 µM]
Cc1noc(C)c1S(=O)(=O)Nc1ccc2c(c1)CC(=O)N([C@H](C)CO)C[C@H](C)[C@H](CN(C)Cc1ccc(Oc3ccccc3)cc1)O2 | -9 | -11[16.7 µM]
Cc1ccc(NC(=O)CN2CCN(C(=O)C3CC3)CC2)c(F)c1 | 2 | 1
C[C@@H]1CCCCO[C@@H](CN(C)S(=O)(=O)c2ccc(F)cc2)[C@@H](C)CN([C@@H](C)CO)C(=O)c2cc(NC(=O)Cc3ccccc3)ccc2O1 | 26 | -1[16.7 µM]
CCCC#Cc1ccc([C@@H]2[C@H](C#N)N(S(=O)(=O)c3cccc(F)c3)[C@H]2CO)cc1 | 9 | -1[16.7 µM]
C[C@H](CO)N1C[C@H](C)[C@@H](CN(C)S(=O)(=O)c2cccs2)Oc2ccc(NC(=O)Cc3cn(C)c4ccccc34)cc2CC1=O | -7 | 20[16.7 µM]
CO[C@@H]1CN(C)C(=O)c2ccc(NC(C)=O)cc2OC[C@@H](C)N(C(=O)c2ccccn2)C[C@@H]1C | -7 | 11[16.7 µM]
CCCNC(=O)N(C)C[C@@H]1Oc2ncc(-c3ccc(C(=O)N(C)C)cc3)cc2C(=O)N([C@H](C)CO)C[C@@H]1C | -2 | -16[16.7 µM]
C[C@@H]1CCCCO[C@@H](CN(C)S(=O)(=O)c2cccs2)[C@H](C)CN([C@H](C)CO)C(=O)c2cc(NC(=O)Nc3ccc(C(F)(F)F)cc3)ccc2O1 | -8 | 12[16.7 µM]
C[C@@H]1CN([C@@H](C)CO)S(=O)(=O)c2ccc(-c3cccc(C#N)c3)cc2O[C@H]1CN(C)C(=O)C1CC1 | -1 | 0[16.7 µM]
N#C[C@@H]1[C@H](c2ccc(C#Cc3ccc(F)cc3)cc2)[C@@H](CO)N1C(=O)C1CC1 | -36 | 21[16.7 µM]
COc1ccccc1C#Cc1ccc2c(c1)O[C@H](CN(C)C(C)=O)[C@H](C)CN([C@@H](C)CO)S2(=O)=O | 37 | 13[16.7 µM]
COc1ccc(S(=O)(=O)N(C)C[C@@H]2OCCCC[C@H](C)Oc3ccc(NC(=O)C4CCCCC4)cc3C(=O)N([C@H](C)CO)C[C@H]2C)cc1 | 1 | -29[16.7 µM]
COc1ccc(CN2C[C@H](C)[C@@H](OC)CN(C)C(=O)c3ccc(NC(=O)c4nc5ccccc5s4)cc3OC[C@@H]2C)cc1 | -5 | 33[16.7 µM]
C[C@@H]1CN([C@H](C)CO)C(=O)Cc2cc(NC(=O)Nc3cccc4ccccc34)ccc2O[C@H]1CN(C)C(=O)Nc1ccc(C(F)(F)F)cc1 | 2 | 13[16.7 µM]
Cc1ccc(NC(=O)C[C@H]2CC[C@H]3[C@@H](COc4ccc(NC(=O)C(C)C)cc4C(=O)N3C)O2)cc1 | 0 | -14[16.7 µM]
C[C@H]1CCCCO[C@H](CN(C)C(=O)NC2CCCCC2)[C@@H](C)CN([C@@H](C)CO)C(=O)c2cc(NC(=O)NC3CCCCC3)ccc2O1 | 10 | 5[16.7 µM]
